Vaccinia mCherry: inhibitors of vaccinia virus infection (mCherry reporter signal) | Vaccinia virus mCherry reporter infection, fluorescence; about a quarter of the inactives have no number | Potency, µM (highest dose often 36.5 µM), for inactives: top-dose activity change, negative = inhibition, actives largely listed as inhibitors | actives 0.63% (n = 310,000) | AID 720579; active = well fitted inhibition curve with a large enough effect; inconclusive = small, poorly fitted or top-dose-only effect; inactive = no such curve, though single readings can be large or run the other way; tested in A549 cells; note: nearly all actives have a fitted effect of over 35% in size; inactives centre near -10
VACV Venus inh: inhibitors of vaccinia virus (Venus reporter); Potency, µM (highest dose often 36.5 µM), without a hit: at the highest dose activity change, negative = inhibition, actives largely listed as inhibitors; actives 0.46% (n = 330,000); AID 720580; Vaccinia virus Venus reporter expression, fluorescence; active means well fitted inhibition curve with a large enough effect; inconclusive means small, poorly fitted or top-dose-only effect; inactive means no such curve, though single readings can be large or run the other way; tested in A549 cells; note: nearly all actives have a fitted effect of over 30% in size; inactives centre near -10
* hit, by the source's call; i = inactive; ? = inconclusive; · = not tested or not shown; ! = a repeat was not active; [ ] = dose if it differs, or a comment. % is set by controls: 0 for no effect and ±100 for the full control effect; potency is the fitted concentration of half-maximal effect.

SMILES	Vaccinia mCherry	VACV Venus inh
CC(=O)Nc1ccc(/C=C/c2ccnc3ccccc23)cc1[N+](=O)[O-]	i	-14%
COc1cc(OC)cc(C(=O)NCCCNC(=O)c2cccnc2)c1	-5%	5%
CCOC(=O)c1c(C)oc2c1c1c(c3ccccc32)OCN(Cc2ccccn2)C1	-18%[1.46 µM]	-13%
Cc1ccc(NC(=O)CN(C)CC(=O)Nc2c(C)cccc2C)c(Br)c1	-1%	-18%
CCOC(=O)C1CCN(C(c2cccc(OC)c2)c2sc3nc(C)nn3c2O)CC1 (stereo unspecified)	i	-9%
CSc1ccc(/C=C(/NC(=O)c2ccco2)C(=O)N2CCCCC2)cc1	i	-6%
CCCCNC(=S)NNC(=O)c1csc(C)c1C	i	-15%
CCOc1ccccc1N1Cc2cc(C)c(C)cc2C1	-21%	-9%
COc1cc2c(cc1OC)CC[N+](C)=C2	9%	5%
Cc1nn2cc(-c3cccc(Cl)c3)cnc2c1Br	?	?
COc1nsnc1N1CCOCC1	1%	-1%
COc1cccc(C(=O)N2CCC(n3nccc3NC(=O)C3CCOC3)CC2)c1 (stereo unspecified)	i	-14%
C/C(=C\C(=O)c1sccc1Cl)N(C)C	-2%	-20%
O=C(CCC(=O)c1cccs1)Nc1ncccc1O	-17%	-6%
NC(=O)c1cc([N+](=O)[O-])ccc1NCCN1C(=O)c2ccc(C(=O)O)cc2C1=O	0%	-16%
Clc1ccc(-c2c(C3=NCCCN3)nnn2-c2ccc(Cl)cc2)cc1	19%	-11%
COc1ccc(C(=O)CC(=O)C(=O)Nc2ccc([N+](=O)[O-])cc2C)cc1	-9%	-16%
CCc1nn(CC(=O)N2CCN(c3cccc(C(F)(F)F)c3)CC2)c(=O)c2cccn12	-15%	-11%
Cc1cc(=O)oc(C)c1C(=O)N1CCN(C(c2ccccc2)c2ccccc2)CC1	·	-11%
COc1ccc(/C=N/n2c(SC)nnc(C(C)(C)C)c2=O)c(OC)c1	·	-16%
COC(=O)C(C)NC(=O)CNS(=O)(=O)c1ccc(F)cc1 (stereo unspecified)	-7%	-8%
O=[N+]([O-])c1ccc(/C=C/c2ccnc3ccccc23)cc1	22%	19%
CCOC(=O)c1sc(=S)n(C)c1N	·	-19%
O=C(Cn1cc(SCc2ccccc2F)c2ccccc21)N1CCCCC1	-3%	-9%

Of the compounds above, 7 have a halogen:
SMILES	Vaccinia mCherry	VACV Venus inh
Cc1ccc(NC(=O)CN(C)CC(=O)Nc2c(C)cccc2C)c(Br)c1	-1%	-18%
Cc1nn2cc(-c3cccc(Cl)c3)cnc2c1Br	?	?
C/C(=C\C(=O)c1sccc1Cl)N(C)C	-2%	-20%
Clc1ccc(-c2c(C3=NCCCN3)nnn2-c2ccc(Cl)cc2)cc1	19%	-11%
CCc1nn(CC(=O)N2CCN(c3cccc(C(F)(F)F)c3)CC2)c(=O)c2cccn12	-15%	-11%
COC(=O)C(C)NC(=O)CNS(=O)(=O)c1ccc(F)cc1 (stereo unspecified)	-7%	-8%
O=C(Cn1cc(SCc2ccccc2F)c2ccccc21)N1CCCCC1	-3%	-9%

Next entries follow:
SMILES	Vaccinia mCherry	VACV Venus inh
COc1ccc(C(=O)O)cc1Nc1cc(C)nc2ncnn12	-3%	-7%
CCCNC(=O)NC(=O)COc1ccc2oc3ccccc3c2c1	2%	6%
Cc1ccc(C)c(-c2nc(Cn3c(=O)cc(-c4ccccc4)c4c(C)nn(C)c43)c(C)o2)c1	-13%	-9%
CSc1cccc(NC(=O)C2C3C=CC4(O3)C2C(=O)N(CCN2CCOCC2)C4C(=O)NC2CCCCC2)c1 (stereo unspecified)	i	-2%
O=C(NC(=S)N1CCCC1)c1ccccc1F	-17%	-9%
CCOc1ccc(CC(=O)NCCc2cnc[nH]2)cc1	-2%	-12%
N#Cc1cc2c(=O)n3ccccc3nc2n(Cc2cccnc2)c1=O	-22%	-6%
O=[N+]([O-])c1ccc2c(c1)C(N1CCOCC1)/C(=C/COc1ccc(Cl)cc1Cl)O2 (stereo unspecified)	i	-20%
Cc1cc(C)c(C(=O)/C=C/C=C/c2ccccc2)c(=O)[nH]1	-29%	?
CCOc1ccc2nc(SCC(=O)Nc3cccc(S(=O)(=O)NC4=NCCCCC4)c3)[nH]c2c1	i	-14%
Cc1ccc(-n2c(SCC(=O)N/N=C/c3ccccc3C(=O)O)nnc2-c2ccc(Cl)cc2)cc1	-25%	4%
Cc1cc(=O)oc(C)c1C(=O)NCCN(C)Cc1ccccc1	-16%	-10%
CS(=O)(=O)N1CCC(C(=O)N2CCC(Cc3ccccc3)CC2)CC1	-10%	-10%
Cc1c(C(=O)Nc2ccc(F)cc2F)oc2ccc3c(c12)C(=O)CC(C)(C)O3	-18%	-5%
O=C(CCc1ccccc1)Nc1ccc(N2CCCCC2)cc1	-24%	-21%
COc1ccc(CNC(=O)COC(=O)c2cncc(Br)c2)cc1	-3%	-1%
COC(=O)[C@@H](NC(=O)CCc1nnc(-c2ccsc2)o1)C(C)C	i	-5%
Cc1cc(NC(=O)CSc2nc3ccccc3cc2C#N)no1	13%	-4%
CCCCCCCCCCCCCCCC(=O)OCC1OC(n2ccc(N)nc2=O)C(O)C1O (stereo unspecified)	?	?
COc1ccc(NS(=O)(=O)c2ccc(C)c(NC(=O)C3CCCO3)c2)cc1 (stereo unspecified)	-20%	-12%
CNCC(=O)c1c[nH]c2ccccc12	-8%	-11%
CC(=O)N1c2ccc(S(=O)(=O)N(C)CC(=O)Nc3ccccc3C)cc2CC1C (stereo unspecified)	-9%	-21%
c1ccc(SCc2cn3cccnc3n2)nc1	-25%	-4%
Cc1ccc(C(=O)Sc2cccccc2=O)cc1	1µM*	1.8µM*
O=S(=O)(c1ccc(F)cc1)c1snnc1-c1ccccc1	?	-21%
Cc1nn(C)cc1S(=O)(=O)N1CCCCC1C (stereo unspecified)	i	-10%
O=S(=O)(Nc1cccnc1)c1cc(Cl)ccc1Cl	i	4%
CCOC(=O)C1=CCC(c2ccccc2)N(S(=O)(=O)c2ccccc2)C1 (stereo unspecified)	6%	2%
Cc1cc(C)cc(-n2nnc(C(=O)NCc3ccco3)c2N)c1	-29%	-15%
CSc1nc(N)n(-c2cc(C(F)(F)F)ccn2)n1	i	-14%
S=C(NCCCc1cnc[nH]1)NCCCN(Cc1ccc(Cl)cc1)c1cc(-c2ccccc2)ccn1	-7%	-23%
CN(C)S(=O)(=O)c1ccc(F)c(C(=O)Nc2ccccc2C(=O)NC2CC2)c1	i	-10%
COc1cc(CC(=O)OCC(=O)NCC(C)C)cc(OC)c1OC	i	-9%
Cc1ccc(NC2=NCC(=O)N2C2CCCC2)cc1C	?	-8%
O=C1CC2(CCN(C(=O)c3ccc(Cl)cc3)CC2)Oc2ccccc21	i	-2%
COc1ccc(-c2cn(CCC(=O)O)c(-c3ccncc3)n2)cc1	i	-12%
COc1ccc(-n2c(=O)cc(N3CCCCCC3)[nH]c2=O)cc1	1%	9%
CNC(=S)N1N=C(c2ccc(OC)cc2)CC1c1ccc(Cl)cc1Cl (stereo unspecified)	i	-18%
O=C(CNS(=O)(=O)c1ccc(F)cc1)N1CCCCCC1	i	-11%
COc1ccc(C(CC(=O)O)NC(=O)COc2ccccc2)cc1OC (stereo unspecified)	-3%	-4%
CCOC(=O)c1c(-c2ccc(C)cc2)csc1NC(=O)c1nc(SCC)ncc1Cl	-14%	0%
CCCCN1C(=O)CC(SC2CC(=O)N(CCCC)C2=O)C1=O (stereo unspecified)	i	-12%
COc1ccc(-n2c(-c3ccc(C)cc3)cc3c2CC(C)(C)CC3=O)cc1Cl	-9%	-17%
CSc1nnc(C)c(/C=C/Nc2ccc(Cl)cc2)n1	·	?
C=CCNCc1ccc(C(=O)NCCCCCCC)cc1[N+](=O)[O-]	-5%	-17%
CN1C[C@@H]2[C@@H]3C(=O)N(Cc4ccccc4)C(=O)[C@@H]3[C@](Cc3ccccc3)(C1=O)N2C(=O)c1ccc(F)cc1	?	?
O=C(N/N=C/c1cn(-c2ccccc2)nc1-c1ccc(F)cc1)c1ccc(Br)o1	·	-20%
COc1ccc(OCCCC(=O)Nc2ccc(N3CCCCC3)cc2)cc1	-13%	1%

3 of the compounds above, as comma-separated lines.
Compound,Vaccinia mCherry,VACV Venus inh
O=C(CNS(=O)(=O)c1ccc(F)cc1)N1CCCCCC1,i,-11%
COc1ccc(C(CC(=O)O)NC(=O)COc2ccccc2)cc1OC (stereo unspecified),-3%,-4%
CCOC(=O)c1c(-c2ccc(C)cc2)csc1NC(=O)c1nc(SCC)ncc1Cl,-14%,0%

Following part:
SMILES	Vaccinia mCherry	VACV Venus inh
CCCc1nnc(SCC(=O)NC2CCCCC2)n1CCOC	-14%	-6%
CCC(C(=O)OCC(=O)C1(O)CCC2C3CCC4=CC(=O)CCC4(C)C3C(O)CC21C)C(C)C (stereo unspecified)	-23%	?
Cc1cccc(CN2CCC(CNC(=O)Nc3ccc(F)c(Cl)c3)CC2)c1	?	-24%
O=C(Nc1ccccc1C(=O)Nc1ccccn1)c1ccc([N+](=O)[O-])cc1	i	-6%
O=C(Nc1cc(F)cc(F)c1)c1sc(Cl)nc1-c1ccccc1	?	?
C[C@@H](NC(=O)[C@H]1O[C@@H](n2cnc3c(N)ncnc32)[C@H](O)[C@@H]1O)c1cccc2ccccc12	8%	-3%
CCOc1c(Cl)cc(CNc2ccc3[nH]c(=O)[nH]c3c2)cc1OC	?	-22%
O=S(=O)(c1ccccc1)C(Br)S(=O)(=O)c1ccccc1	i	3%
COCC(C)n1c(SCC(=O)NNC(=O)c2ccc(F)cc2)nc2ccccc2c1=O (stereo unspecified)	-5%	-10%
CC12CCCC(O)(C1)C1CC(C)(C)C1CC2 (stereo unspecified)	i	-21%
Cc1cc(Nc2ccc(C(=O)O)cc2)n2nc(C)nc2n1	0%	6%
COc1ccc(-c2sc(Nc3ccccc3)n[n+]2C)c(C)c1C	i	-33%
CC(C)NC(=O)CS(=O)(=O)c1ccccc1	i	-6%
COc1ccc(NC(=O)c2ccc3nc(C)c(N(C)C(=O)CCc4ccccc4)n3c2)cc1OC	-3%	-1%
C#CCOCCOCCOCCNc1nc(N2CCN(C(=O)[C@H](CCC(=O)O)n3cc(C(N)CC(C)C)nn3)CC2)nc(N2CCN(C(=O)[C@H](CCC(=O)O)n3cc(C(N)CC(C)C)nn3)CC2)n1 (stereo partly specified)	-17%	-6%
Cc1cccc(N2CCN(CCNC(=O)C3COc4ccccc4C3)CC2)c1C (stereo unspecified)	-15%	-12%
CC(C)C(C(=O)NCc1ccccc1)N1CCN(C(=O)C2CCCO2)CC1 (stereo unspecified)	-9%	-16%
CCOc1cc(C(=O)N(C)CC(=O)Nc2cccc(F)c2)ccc1OCC(=O)N1CCOCC1	-13%	-4%
Fc1c(CSC(=S)N2CCOCC2)cccc1CSC(=S)N1CCOCC1	i	4%
O=C(CSc1nnc(NC(=O)c2c(F)cccc2F)s1)NC1CCCCC1	-9%	-2%
CN(C)CCN(C(=O)CCS(=O)(=O)c1ccccc1)c1nc2c(F)cccc2s1	-10%[7.34 µM]	-3%[7.34 µM]
CC(C)CC(=O)NNC(=S)NCc1ccco1	-5%	1%
O=S(=O)(Nc1ccc(-n2cnnn2)cc1)c1cccc(Cl)c1	i	-2%
O=C(Cc1ccc(-n2cccc2)cc1)N1CCN(c2ccccc2F)CC1	?	-5%
CCCn1c(SCC(=O)Nc2cccc(C(=O)OC)c2)nnc1-c1cccnc1	-12%	-15%
Cc1cccc(-c2noc(-c3ccccc3OCC(=O)Nc3ccc([N+](=O)[O-])cc3)n2)c1	-9%	-1%
N#Cc1c(NC(=O)c2ccccc2Cl)n(Cc2ccccc2)c2nc3ccccc3nc12	-20%	-23%
O=C(NCCOC(=O)Nc1cccc2ccccc12)OCc1ccccc1	-16%	-15%
Cc1c(C(=O)NCCC2=CCCCC2)sc2ncnc(N3CCCCC3C)c12 (stereo unspecified)	-12%	-18%
COc1ccc([C@H]2CC(=O)C=C(c3ccc(F)nc3)C2)cc1OC	?	?
Cc1cc(C(=O)NCc2ccco2)c2cc(F)ccc2n1	-11%	-9%
COCCNC(=O)N1[C@H]2CC[C@@H]1C(C(=O)OC)=C(c1cccc(C#N)c1)C2	i	0%
N#CC1=C(SCC(=O)c2ccccc2)NC2=C(C(=O)CCC2)C1c1ccco1 (stereo unspecified)	?	?
O=C(c1ccc(Cl)c(Cl)c1)N(Cc1ccco1)c1ccc(O)cc1	-8%[1.46 µM]	?
Cc1cccc(NC(=O)CSc2nnc3[nH]c(=O)cc(C)n23)c1C	-7%	-3%
Cc1onc(-c2c(F)cccc2Cl)c1C(=O)OCC(=O)NCc1ccccc1	-9%	-7%
COc1ccc(CCNC(=O)COC(=O)c2ccc(S(=O)(=O)N3CCCC3)cc2)cc1OC	i	8%
Clc1ccc(-c2nnc(CCc3ccccc3)o2)c(Cl)c1	-6%	-4%
Cc1cc(C)cc(N2C(=O)NC(=O)/C(=C\c3cc(C)n(C)c3C)C2=O)c1	-4%	-1%
COc1ccc(OC)c(S(=O)(=O)N2CCC(c3nc4ccccc4[nH]3)CC2)c1	-20%	-11%
CCCCCN=C(N)N/N=C/c1c[nH]c2ccc(OC)cc12	?	11µM*!
Cn1c2c(c(=O)n(C)c1=O)C(c1cccc(F)c1)C(C#N)=C(N)O2 (stereo unspecified)	-8%	-8%
Cc1ccc(-c2noc(COc3ccc(Br)c(C)c3)n2)cc1	2%	-4%
